# SARS PLP yeast = inhibitors of SARS-CoV papain-like protease in yeast | S. cerevisiae expressing SARS-CoV PLpro, growth rescue; control for the full effect not named in the record | Potency, µM (highest dose often 32.9 µM), for the others: at the highest dose activity, positive = growth rescue | hit rate 0.19% among 330,000 | AID 485353; active means well fitted rising curve with a large enough effect; inconclusive means small, poorly fitted or top-dose-only effect; inactive means no such curve, though single readings can be large or run the other way; also: 0% is about no effect; nearly all actives have a fitted effect of over 55% in size; growth read by luminescence after 48 h
# MARV entry inh = Marburg virus entry inhibition; Marburg virus pseudotyped entry inhibition, cell reporter; control for the full effect not named in the record; about a third of the inactives were read at about 46 µM; Potency, µM (highest dose often 37.8 µM), inactives show top-dose activity change, negative = inhibition, usual class: inhibitors; hit rate 1.8% among 300,000; AID 540276; active = well fitted inhibition curve with a large enough effect; inconclusive = small, poorly fitted or top-dose-only effect, or effect the other way; inactive = flat fitted curve, though single readings scatter; tested in HEK293 cells; about a fifth of its hits are not listed in these tables; also: % is scaled to controls: 0 for no effect and ±100 for the full control effect; luciferase read-out
# NS1 function inh = inhibitors of influenza NS1 protein function | AID 2326 | Potency, µM (series often up to 46.1 µM), for the others: top-dose activity, positive = more growth | S. cerevisiae slowed by influenza A NS1, growth recovery by OD600 | hit rate 0.4% among 270,000; active means well fitted rising curve with a large enough effect; inconclusive means small, poorly fitted or top-dose-only effect; inactive means no such curve, though single readings can be large or run the other way; also: nearly all actives have a fitted effect of over 50% in size
#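 Compounds were scored for reversing the slow growth caused by influenza A NS1 in S. cerevisiae, measured by optical density at 600 nm. Assay medium contained 2% galactose at pH 6.0; NS1-free yeast of the same strain were the positive control.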
# Cruzain Triton = cruzain (T. cruzi) inhibition with detergent. P25779. purified cruzain, Z-FR-AMC fluorescence, 0.01% Triton. Potency, µM, for inactives: max response, negative = inhibition, actives largely listed as inhibitors. hit rate 0.43% among 200,000;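 also: plate controls were neutral wells for no effect and buffer without enzyme for full effect; nearly all actives have a fitted effect of over 40% in size; top concentration of the series not given in the record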
# Target sequence (P25779 123-467 limits assumed): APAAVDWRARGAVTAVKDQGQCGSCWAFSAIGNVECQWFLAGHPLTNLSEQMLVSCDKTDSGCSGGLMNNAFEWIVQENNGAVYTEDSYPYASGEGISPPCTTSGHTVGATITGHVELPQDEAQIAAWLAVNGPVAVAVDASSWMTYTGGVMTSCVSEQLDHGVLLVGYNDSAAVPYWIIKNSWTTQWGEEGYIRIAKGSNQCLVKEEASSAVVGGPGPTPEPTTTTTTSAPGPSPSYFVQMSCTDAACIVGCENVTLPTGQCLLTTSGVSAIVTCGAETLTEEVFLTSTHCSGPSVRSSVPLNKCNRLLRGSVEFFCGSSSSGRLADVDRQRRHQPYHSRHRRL
#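 Read-out: AMC fluorescence (360 nm excitation, 450 nm emission), four reads over 2 min, first-to-third difference used. Conditions: cruzain 1.5 nM, Z-FR-AMC 2 uM, pH 5.5 acetate, 5 mM DTT, 0.01% Triton X-100.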
# RE007 growth inh = less growth of the S. pombe RE007 Vpr strain; S. pombe RE007 Vpr strain, BacTiter-Glo ATP luminescence, 24 h; control for the full effect not named in the record; Potency, µM (doses to about 92.2 µM), inactives show at the highest dose activity change, negative = less growth; hit rate 0.21% among 360,000; AID 651644; active = well fitted falling curve with a large enough effect; inconclusive = small, poorly fitted or top-dose-only effect; inactive = no such curve, though single readings can be large or run the other way;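 also: % is scaled to controls: 0 for no effect and ±100 for the full control effect; nearly all actives have a fitted effect of over 50% in size; the assay follows cell death caused by Vpr and the record does not say whether a fall means rescue or toxicity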
#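 Fission yeast strain RE007, carrying one chromosomally integrated HIV-1 vpr copy, was seeded at OD 0.01 in PMG+AL medium with 23 nL pinned compound. After 24 h at 30 °C and 99% humidity, viability was read by BacTiter-Glo luminescence.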
# Cruzain noTriton = blocks cruzain activity in detergent-free assay; P25779; purified cruzain, Z-FR-AMC fluorescence, no detergent; Potency, µM, for the others: max response, negative = inhibition, actives largely listed as inhibitors; hit rate 2.3% among 200,000; AID 1476;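 also: plate controls were enzyme without inhibitor for no effect and buffer without enzyme for full effect; nearly all actives have a fitted effect of over 40% in size; top concentration of the series not given in the record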
#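 Detergent-free condition (0.00005% Triton X-100) in acetate buffer pH 5.5 with DTT. 1.5 nM enzyme and compound were pre-mixed 15 min, then 2 uM Z-FR-AMC substrate added; reaction progress from fluorescence change between first and third reads (60 s).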
# LASV entry inh = Lassa virus entry inhibition. AID 540256. Lassa virus pseudotype entry inhibition, cell reporter; control for the full effect not named in the record. hit rate 1.2% among 300,000. Potency, µM (series often up to 37.9 µM), for the others: top-dose activity change, negative = inhibition, most hits filed as inhibitors; active means well fitted inhibition curve with a large enough effect; inconclusive means small, poorly fitted or top-dose-only effect, or effect the other way; inactive means flat fitted curve, though single readings scatter; tested in HEK293 cells; also: % is scaled to controls: 0 for no effect and ±100 for the full control effect; nearly all actives have a fitted effect of over 50% in size; luciferase read-out
# 2A StopGo = lowers the luciferase signal of an FMDV 2A StopGo reporter; human cells with a luciferase reporter of 2A StopGo recoding; control for the full effect not named in the record; Potency, µM (titrated, usually from 57.9 µM), without a hit: top-dose signal change, negative = less light; hit rate 1.2% among 410,000; active = well fitted falling curve with a large enough effect; inconclusive = small, poorly fitted or top-dose-only effect; inactive = no such curve, though single readings can be large or run the other way; tested in HEK293T cells; also: % is scaled to controls: 0 for no effect and ±100 for the full control effect; nearly all actives have a fitted effect of over 45% in size; luciferase light after 4 h
# The depositor's hits bear a star; i = inactive; ? = inconclusive; . = not tested or not shown; & = joins results of further samples; [ ] = another dose, or the depositor's remark. Unless noted, calls follow the shape of the dose curve; as a rule, active = well fitted curve in the direction sought with a large enough effect; inconclusive = small, poorly fitted or top-dose-only effect, or another doubt; inactive = no such curve, though single readings can be large; an effect the other way counts as inactive or inconclusive. Potency is read from the fitted curve at half-maximal effect. Hits appear at their usual frequency. Share with any hit: about 4.7%.
SMILES,SARS PLP yeast,MARV entry inh,NS1 function inh,Cruzain Triton,RE007 growth inh,Cruzain noTriton,LASV entry inh,2A StopGo
CC(C)(C)c1ccc(C2(C)NC(=O)N(CC(=O)Nc3ccc4c(c3)OCO4)C2=O)cc1 (configuration not stated),8%,-13%,17%,-7.2%,5%,24%,?,-17%
Cc1ccc(NC(=O)CSc2nnc(-c3ccc(S(=O)(=O)N4CCOCC4)cc3)n2C)cc1,9%,4%&4%,-11%,2.5%,12%&3%,?,6%,-1%
CC(C)(C)c1ccc(C(=O)Nc2ccc(C(=O)N3CCCC3)cc2)cc1,?,?,-12%,.,-2%,.,-4%,?
NC(=NC(=O)c1cccc(C(F)(F)F)c1)c1ccc(C(F)(F)F)cn1,0%,?,-3%,.,-8%,.,0%,27%
COc1cc(CNC2CCCCCCC2)cc(Br)c1OCC#N,11%,12µM*,-8%,-1.9%,-4%,-9%,-17%,0%
O=c1[nH]c(CN2CCN(C/C=C/c3ccccc3)CC2)nc2cc(Cl)ccc12,-3%,4.1µM*,1%,-3.9%,-19%,9%,1%,-23%
CCCC(C)NC(=O)c1ccccc1SC (configuration not stated),1%,3%[46.1 µM],2%,.,-1%,.,5%[46.1 µM],11%
O=C(CCCN1C(=O)/C(=C\c2ccccc2)SC1=S)Nc1ccccc1O,0%,?,-1%,.,1%,.,-23%[46.1 µM],-16%
Cc1ccc(C)c2[nH]c(=O)c(CCNC(=O)c3cccs3)cc12,10%,9%,17%,0.7%,-1%,0%,-8%,-30%
CN(C)CC/C=C1/c2cc(F)ccc2Sc2ccc(Cl)cc21,.,?,.,.,-22%,.,?,-6%
Nc1cc(=O)[nH]c(SCCSc2ccc(F)cc2)n1,-1%,19%[46.1 µM],24%,.,4%,.,-16%[46.1 µM],3%
NC(=O)NC(=O)COC(=O)/C=C/c1cccs1,1%,.,-2%,.,-1%,.,.,-19%
COc1ccc(CC(=O)NNC(=O)c2ccco2)cc1OC,-1%,3%[46.1 µM],9%,.,0%,.,20%,-6%
COc1ccc(CCn2ccc(O)c(Cc3ccc(Cl)cc3Cl)c2=O)cc1OC,0%,4µM*,1%,.,-10%,.,-23%,-28%
O=S(=O)(c1ccccc1)n1nc(-c2ccccc2)nc1NCc1ccco1,-24%,10%[46.1 µM],-105%,0.3%,7%,-2%,12%,36%[activator]
COc1ccc2nc(NC(=O)CSC3=NCCS3)sc2c1,-6%,?,5%,-7.2%,-8%,?,-1%,35%
COc1ccc(OC)c(NC(=O)C(=O)/C=C(\O)c2cc(OC)ccc2OC)c1,1%,1%,7%,-6.9%,0%,?,0%,1%
Cc1cccc(Oc2nc(-c3ccccn3)nc3ccccc23)c1,-3%,?,-50%,.,?,.,-18%,-12%
O=c1cc(-c2ccc(Cl)cc2)[nH]c2ccccc12,-1%,.,-6%,.,-15%,.,.,10%
O=C1[C@@H]2C(c3cccnc3)=NO[C@@H]2C(=O)N1c1ccc(Br)cc1,-6%,0%,4%,.,22µM*,.,-11%,2%
CC(C)Oc1ccc(C(CC(=O)O)c2ccc(F)cc2)cc1 (configuration not stated),-3%,3%[46.1 µM],-39%,.,0%,.,-9%,-8%
CCOc1ccc(/C=N/NC(=O)C(C)N(c2ccc(OC)cc2)S(C)(=O)=O)cc1 (configuration not stated),1%,-2%,-10%,-3.5%,-8%,6%,-10%,.
CCCc1ccc(C(=O)Cn2nc(C(=O)O)c3ccccc3c2=O)cc1,1%,?,.,.,3%,.,-28%,-11%
CN(C)/C=N/NC(=O)c1ccccc1,-1%,10%[46.1 µM],.,.,10%,.,2%,-1%
COc1ccc(C(CNC(=O)COc2ccc(F)cc2Cl)N2CCOCC2)cc1 (configuration not stated),-1%,12%,.,.,-16%,.,-26%,?
COc1ccc(CNC(=O)OCCN2CCN(Cc3ccccc3)CCC2=O)cc1,-13%,13%,6%,2.6%,-3%,-22%,?,-6%
O=C(CSc1nnc(-c2ccc(O)cc2)n1Cc1ccccc1)NNC(=O)c1ccc(Br)cc1,-12%,16%,?,-1.4%,11%,15%,0%,-8%
CCn1c(NC(=O)c2ccccc2)c(-c2cccs2)c(=O)c2ccccc21,3%,-1%,19%,-4.0%,-2%,-6%,2%,8%
N#Cc1c(SCC(=O)Nc2ccc(Cl)cc2Cl)sc2c(O)cc(=O)[nH]c12,4%,29%[46.1 µM],17%,.,-6%,.,0%,16%
O=c1c2ccccc2nc(-c2ccccc2)n1/N=C/c1ccc([N+](=O)[O-])cc1,7%,26%,-1%,-1.8%,4%,-28%,-7%,-26%
NC(=NCCC[C@H](N)C(=O)O)NO,.,?,-16%,3.4%,.,5%,.,.
Cc1c(NC(=O)Nc2ccc(Br)cc2F)sc2nc3n(c(=O)c12)CCC(C)CC3 (configuration not stated),.,1%[46.1 µM],.,-0.4%,.,-7%,.,-22%
CCC(C(=O)NCCc1ccc(SC)cc1)n1nc(C)c2sc3ccccc3c2c1=O (configuration not stated),.,13%[46.1 µM],.,-4.8%,.,-15%,?,-12%
CCOC(=O)C1CCCN(C(=O)c2nn(-c3ccc(C)cc3)c(=O)n(C)c2=O)C1 (configuration not stated),.,.,.,0.1%,.,-5%,4%[46.1 µM],-14%
CC1CN(c2nc(-c3ccccc3)nnc2-c2ccccc2)CC(C)O1 (configuration not stated),0%,6%,-17%,-9.0%,-5%,2%,-21%,-18%
COc1ccc(N2C(=O)C3CCCN3C2c2ccc(C)o2)cc1 (configuration not stated),0%,.,4%,.,5%,.,.,0%
CC(=O)O[C@@H]1CC[C@]2(C)C3CC[C@]4(C)C(=O)[C@H](O)CC4C3[C@@H](OC(C)=O)C[C@H]2C1 (some centres not stated),7%,-7%[46.1 µM],.,.,-17%,.,18%[46.1 µM],-9%
CCOc1ccc(C(=O)Nc2ccccc2C(=O)O)cc1,-1%,?,1%,.,-6%,.,?,-54%
O=C(Cn1cncn1)N1CCN(c2ccc(F)cc2)CC1,0%,-21%[46.1 µM],0%,.,-3%,.,0%[46.1 µM],44%[activator]
O=C(CCN1CCCCC1)c1ccc2c(c1)OCCO2,-47%,-13%,-81%,-14%,i,-26%,9%,.
COC(=O)c1ccc(CSc2ccc3nnc(-c4ccccn4)n3n2)o1,12%,.,-9%,-1.8%,8%,-15%,.,-25%
Cc1ccc(N(CCC#N)C(=O)COC(=O)c2ccccc2SCC(=O)N2CCCC2)cc1,.,17%,.,.,-14%,.,-5%,12%
O=S(=O)(Nc1nc2n(n1)C(c1ccc(F)cc1)C=C(c1ccc(Cl)cc1)N2)c1ccccc1 (configuration not stated),.,6%[46.1 µM],.,-6.5%,.,?,-8%[46.1 µM],-6%
NC(=O)N1OCC2COc3ccc4ccccc4c3C21 (configuration not stated),3%,16%,?,3.1%,-5%,2%,-3%,4%
Cc1ccc(Nc2nc(-c3cccnc3)cs2)cc1Cl,-6%,?,-62%,.,-4%,.,3%[46.1 µM],13%
COCCNC(=O)CS(=O)Cc1nc(-c2ccccc2C)oc1C (configuration not stated),5%,.,5%,-0.6%,9%,-8%,.,-3%
Cn1c(=O)c2c(SCC(=O)NCC3CCCO3)nc(-c3cccs3)nc2n(C)c1=O (configuration not stated),4%,0%,-2%,-4.2%,.,-5%,.,.
COC(=O)C(Cc1ccccc1)NC(=O)CCNC(=O)c1ccc(Br)cc1 (configuration not stated),1%,-1%[46.1 µM],9%,.,-19%,.,-3%[46.1 µM],21%
COc1ccc(NS(=O)(=O)c2ccc(C)c(C(=O)N3CC(C)OC(C)C3)c2)cc1 (configuration not stated),0%,-6%[46.1 µM],.,.,14%,.,0%,-10%
CC[C@]12c3[nH]c4ccc(OC)cc4c3CCN1C(=O)C(CC(=O)NCCCN(C)C)C[C@@H]2C(=O)N1CCN(C(=O)c2ccco2)CC1 (some centres not stated),18%,0%,.,.,0%,.,.,0%
CN(C)CCNc1nc2sc3c(c2c(=O)n1-c1ccccc1)CCCCC3,2%,?,4%,.,1%,.,-6%,-9%
NC(=S)N/N=C1\CC(c2ccc3c(c2)OCCCO3)Oc2ccc(F)cc21 (configuration not stated),1%,?,2µM*,.,4%,.,?,?
Nc1[nH]c(=O)[nH]c(=O)c1N=Nc1ccc(C(=O)O)cc1,0%,.,3%,.,6%,.,.,0%
CC(C)C[C@H](NC(=O)C1CC(=O)N(c2ccc3c(c2)OCO3)C1)C(=O)NC1CCCC1 (some centres not stated),2%,.,-4%,.,-2%,.,.,-5%
O=C(CCCNC(=O)c1ccc(Cl)cc1)Nc1ccc(Br)cc1,-12%,?,1%,.,-4%,.,-2%,4%
Cc1c(Br)c([N+](=O)[O-])nn1C(C)C(=O)Nc1c(C)n(C)n(-c2ccccc2)c1=O (configuration not stated),1%,-11%,-4%,6.3%,-9%,4%,7%,.
Cn1c(=O)c2c(ncn2CC(COCc2ccccc2)OCc2ccccc2)n(C)c1=O (configuration not stated),1%,.,-8%,.,15%,.,.,-7%
CCCOc1ccc(N2C(=O)CC(N3CCN(S(=O)(=O)c4ccccc4)CC3)C2=O)cc1 (configuration not stated),-7%,?,6%,2.6%,-1%[3.69 µM],?,11%,-25%
O=C(Nc1nnc(-c2ccc(Cl)cc2)o1)c1ccccc1Br,-10%,.,-186%,-1.1%,-14%,-7%,.,-3%
O=C(OCCNC(=O)c1cc2ccccc2oc1=O)c1cccnc1,-3%,-8%,-4%,-1.1%,5%,3%,-4%,-16%
O=C(Cc1cccs1)NCc1cccnc1,3%,0%,4%,6.8%,5%,10%,1%,2%
